Lassa entry inh: inhibitors of Lassa virus binding or cell entry. Potency, µM (highest dose often 37.9 µM), inactives show at the top dose activity change, negative = inhibition, hits mostly inhibitors. actives 1.2% (n = 300,000). Lassa virus pseudotype entry inhibition, cell reporter; control for the full effect not named in the record; active means well fitted inhibition curve with a large enough effect; inconclusive means small, poorly fitted or top-dose-only effect, or effect the other way; inactive means flat fitted curve, though single readings scatter; tested in HEK293 cells; note: % is set by controls: 0 for no effect and ±100 for the full control effect; nearly all actives have a fitted effect of over 50% in size; luciferase read-out
2A StopGo: lowers the luciferase signal of an FMDV 2A StopGo reporter | human cells with a luciferase reporter of 2A StopGo recoding; control for the full effect not named in the record | Potency, µM (series often up to 57.9 µM), for inactives: at the highest dose signal change, negative = less light | actives 1.2% (n = 410,000) | AID 1159524; active = well fitted falling curve with a large enough effect; inconclusive = small, poorly fitted or top-dose-only effect; inactive = no such curve, though single readings can be large or run the other way; tested in HEK293T cells; note: % is set by controls: 0 for no effect and ±100 for the full control effect; nearly all actives have a fitted effect of over 45% in size; luciferase light after 4 h
SARS PLP yeast: inhibitors of SARS-CoV papain-like protease in yeast. actives 0.19% (n = 330,000). Potency, µM (doses to about 32.9 µM), without a hit: at the highest dose activity, positive = growth rescue. S. cerevisiae expressing SARS-CoV PLpro, growth rescue; control for the full effect not named in the record; active means well fitted rising curve with a large enough effect; inconclusive means small, poorly fitted or top-dose-only effect; inactive means no such curve, though single readings can be large or run the other way; note: 0% is about no effect; nearly all actives have a fitted effect of over 55% in size; growth read by luminescence after 48 h
RE007 growth inh: less growth of the S. pombe RE007 Vpr strain; S. pombe RE007 Vpr strain, BacTiter-Glo ATP luminescence, 24 h; control for the full effect not named in the record; Potency, µM (titrated, usually from 92.2 µM), for inactives: top-dose activity change, negative = less growth; actives 0.21% (n = 360,000); AID 651644; active = well fitted falling curve with a large enough effect; inconclusive = small, poorly fitted or top-dose-only effect; inactive = no such curve, though single readings can be large or run the other way;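 note: % is set by controls: 0 for no effect and ±100 for the full control effect; nearly all actives have a fitted effect of over 50% in size; the assay follows cell death caused by Vpr and the record does not say whether a fall means rescue or toxicity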
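Fission yeast strain RE007, carrying one chromosomally integrated HIV-1 vpr copy, was seeded at OD 0.01 in PMG+AL medium with 23 nL pinned compound. After 24 h at 30 °C and 99% humidity, viability was read by BacTiter-Glo luminescence.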
NS1 function inh: inhibitors of influenza NS1 protein function; Potency, µM (series often up to 46.1 µM), for inactives: top-dose activity, positive = more growth; S. cerevisiae slowed by influenza A NS1, growth recovery by OD600; actives 0.4% (n = 270,000); active means well fitted rising curve with a large enough effect; inconclusive means small, poorly fitted or top-dose-only effect; inactive means no such curve, though single readings can be large or run the other way; note: nearly all actives have a fitted effect of over 50% in size
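S. cerevisiae expressing influenza A NS1, grown in glucose, washed, then diluted 1:100 into pH 6.0 -URA galactose medium with 23 nl compound. Growth recovery read as OD600; NS1-free strain serves as control.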
MARV entry inh: inhibitors of Marburg virus binding or cell entry; Potency, µM (top dose mostly 37.8 µM), for the others: at the highest dose activity change, negative = inhibition, hits mostly inhibitors; actives 1.8% (n = 300,000); Marburg virus pseudotyped entry inhibition, cell reporter; control for the full effect not named in the record; about a third of the inactives were read at about 46 µM; active = well fitted inhibition curve with a large enough effect; inconclusive = small, poorly fitted or top-dose-only effect, or effect the other way; inactive = flat fitted curve, though single readings scatter; tested in HEK293 cells; about a fifth of its hits are not listed in these tables; note: % is set by controls: 0 for no effect and ±100 for the full control effect; luciferase read-out
Cruzain Triton: cruzain (T. cruzi) inhibition with detergent; purified cruzain, Z-FR-AMC fluorescence, 0.01% Triton; actives 0.43% (n = 200,000); Potency, µM, without a hit: max response, negative = inhibition, hits mostly inhibitors; P25779; AID 1478;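 note: plate controls were neutral wells for no effect and buffer without enzyme for full effect; nearly all actives have a fitted effect of over 40% in size; top concentration of the series not given in the record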
Target sequence (P25779 123-467 limits assumed): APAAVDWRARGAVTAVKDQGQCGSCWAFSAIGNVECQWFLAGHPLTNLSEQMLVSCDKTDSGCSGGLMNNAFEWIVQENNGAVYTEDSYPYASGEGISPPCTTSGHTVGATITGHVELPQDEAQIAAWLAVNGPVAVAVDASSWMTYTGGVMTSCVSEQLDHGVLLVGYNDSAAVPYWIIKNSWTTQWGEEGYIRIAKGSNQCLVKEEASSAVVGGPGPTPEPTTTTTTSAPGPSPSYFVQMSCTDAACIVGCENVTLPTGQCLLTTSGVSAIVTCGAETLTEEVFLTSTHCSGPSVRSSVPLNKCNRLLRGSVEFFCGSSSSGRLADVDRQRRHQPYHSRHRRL
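Cysteine protease activity tested under reducing, mildly acidic conditions (100 mM sodium acetate pH 5.5, 5 mM DTT) plus 0.01% Triton X-100. Cruzain 1.5 nM; substrate Z-FR-AMC 2 uM; 15 min compound preincubation at room temperature.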
Cruzain noTriton: blocks cruzain activity in detergent-free assay | Potency, µM, for the others: max response, negative = inhibition, usual class: inhibitors | P25779 | purified cruzain, Z-FR-AMC fluorescence, no detergent | actives 2.3% (n = 200,000);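 note: plate controls were enzyme without inhibitor for no effect and buffer without enzyme for full effect; nearly all actives have a fitted effect of over 40% in size; top concentration of the series not given in the record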
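Detergent-free condition (0.00005% Triton X-100) in acetate buffer pH 5.5 with DTT. 1.5 nM enzyme and compound were pre-mixed 15 min, then 2 uM Z-FR-AMC substrate added; reaction progress from fluorescence change between first and third reads (60 s).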
An asterisk follows results filed as active; u = inconclusive; x = no result given; & = joins results of further samples; [ ] = another dose, or the depositor's remark. Unless noted, calls come from the whole dose curve; as a rule, active = well fitted curve in the direction sought with a large enough effect; inconclusive = small, poorly fitted or top-dose-only effect, or another doubt; inactive = no such curve, though single readings can be large; an effect the other way counts as inactive or inconclusive. Potency is the fitted concentration of half-maximal effect.

Second line of a record – Lassa entry inh | 2A StopGo | SARS PLP yeast | RE007 growth inh | NS1 function inh | MARV entry inh | Cruzain Triton | Cruzain noTriton
> O=C(Nc1ccc2nc3n(c(=O)c2c1)CCCCC3)c1ccccn1
  u | 0.0% | -38.2% | 0.1% | -113.3% | -31.5% | -4.1% | -8.3%
> O=C(COCc1cc(-c2ccc(F)cc2)on1)Nc1cc(F)ccc1F
  u | 0.0% | x | x | x | x | -7.5% | 14.2%
> CCOC(=O)Nc1ccc2c(COC(=O)C(NS(=O)(=O)c3ccc(Cl)cc3)C(C)O)cc(=O)oc2c1 (stereo not given)
  u | u | 19.3% | 1.6% | x | -18.3% | x | x
> COc1ccc(NC(=O)NCCC2=CCCCC2)cc1
  x | 78.1%[activator] | 1.0% | -8.8% | -6.8% | x | x | x
> CC1Sc2ccc(S(=O)(=O)CCC(=O)N(C)Cc3ccccc3)cc2NC1=O (stereo not given)
  x | -20.2% | -2.1% | 10.7% | 15.7% | x | x | x
> Cc1ccc2c(Cl)cc(Cl)c(OCC(=O)OCC(=O)Nc3ccc(C#N)cc3)c2n1
  u | 11.2% | -19.2% | 0.1% | -6.7% | 6.0% | -6.1% | 9.3%
> CCCCc1ccc(NC(=O)Nc2cnccn2)cc1
  x | 37.9%[activator] | -7.9% | -0.1% | -34.4% | x | x | x
> O=[N+]([O-])c1ccc(N2CCN(CCOc3nonc3-c3ccccc3)CC2)c(Cl)c1
  -6.8% | x | -5.9% | 4.9% | 13.0% | 1.9% | -6.3% | 7.3%
> COc1ccc(C(=O)N/C(=C\c2ccc3c(c2)OCO3)C(=O)NCCc2nc3ccccc3[nH]2)cc1
  8.2% | 34.9%[activator] | 12.8% | -5.1% | -2.6% | u | -8.9% | 0.5%
> CCOc1ccc(/C=N/NC(=O)Cc2cccs2)cc1
  u | 70.4%[activator] | 0.1% | -1.2% | -0.5% | u | x | x
> CCC(Sc1nc2ncccc2[nH]1)C(=O)NC1CCC(C)CC1 (stereo not given)
  x | 0.0% | 4.7% | 2.6% | 5.1% | x | x | x
> CCCCCCc1cc2cc(S(=O)(=O)c3ccc(C)cc3)c(=O)oc2cc1O
  13.8% | -21.9% | 8.0% | 2.6% | 3.6% | 11.5% | -12.1% | -21.3%
> O=[N+]([O-])c1ccc2[nH]c(O)c(N=NC(=S)Nc3cccnc3)c2c1
  x | -7.6% | -1.2% | 11.3% | 14.6% | x | x | x
> CCc1ccc(OCC(=O)NCCN(C)C)c(Br)c1
  9.1% | -18.2% | 5.0% | 18.1% | 0.9% | u | -0.7% | -3.2%
> Cc1ccc2nc(-c3cccc(N)c3)oc2c1
  u | x | -1.1% | -10.6% | -3.1% | u | -5.6% | 2.6%
> CCOCCCN1CN(Cc2ccccc2)CNC1=S
  21.5% | -19.7% | 16.8% | 7.4% | 9.5% | 9.6% | -1.1% | -13.5%
> O=C(Cc1cn2ccsc2n1)NCCc1ccc(F)cc1
  -11.4% | 5.3% | 7.2% | -3.0% | -3.7% | 13.1% | -1.4% | -16.6%
> CC(C)=NNC(=O)C1=NNC(=O)C1
  x | 0.0% | 1.1% | 8.7% | -4.0% | x | x | x
> Cc1ccccc1OCC(=O)O/N=C(\N)c1ccncc1
  -22.2%[46.1 µM] | 41.7%[activator] | -3.4% | 6.1% | -6.2% | u | x | x
> O=C(N/N=C/C=C\c1ccc([N+](=O)[O-])cc1)c1cccnc1
  -1.5%[46.1 µM] | 1.2% | -0.9% | 6.2% | 3.3% | -20.2%[46.1 µM] | x | x
> Cc1ccc(-n2nnnc2-c2ccco2)cc1
  -14.6% | -4.6% | 14.7% | 1.0% | -3.9% | 28.4% | 1.0% | -2.1%
> CCOc1ccc(C(C)=O)cc1COC(=O)C1=COCCO1
  -0.9% | 2.3% | 3.4% | -2.8% | -2.1% | 16.5% | -1.9% | -16.8%
> CCOc1ccccc1-c1cc(C(=O)N/N=C/c2cccnc2)c2ccccc2n1
  u | -14.2% | x | -8.2% | x | 5.62µM* | x | x
> NC1=NC[C@H](Cc2ccc(O)cc2)N1CCc1cc(C(F)(F)F)cc(C(F)(F)F)c1
  x | -14.3% | 0.9% | -5.4% | -8.5% | x | x | x
> CCOC(=O)c1ccc(NC(=O)CSc2nnc(-c3cccs3)n2C)cc1
  -1.6% | 5.2% | -4.2% | -6.3% | 4.8% | 0.7% | 3.3% | 20.0%
> O=C(Nc1ccccc1O)c1cc(S(=O)(=O)N2CCOCC2)c(Cl)cc1Cl
  -17.4%[14.3 µM] | 15.8µM* | -2.6% | 10.5% | -7.8% | u | 1.3% | -2.0%
> COCCNC(=O)C(=O)N/N=C/c1ccccc1C(F)(F)F
  -9.1% | -3.5% | 10.2% | 0.0% | 14.5% | 0.3%[46.1 µM] | -1.8% | 12.3%
> CCCCn1c(O)c(/C=C2\C=Nc3ccccc32)c(=O)[nH]c1=O
  -7.2%[46.1 µM] | -4.1% | 1.2% | 9.1% | 5.5% | u | x | x
> COc1cc2cc(-c3ccc(O)cc3O)nc(C)c2cc1OC
  u | -16.7% | -1.9% | -9.9% | -4.8% | u | x | x
> COCCCNC(=O)C(Cc1ccccc1)NS(=O)(=O)c1ccc2c(c1)c(=O)n(C)c(=O)n2C (stereo not given)
  -5.8% | -14.5% | 5.6% | u | 1.3% | -0.2%&6.6% | 1.4% | -8.1%

Next entries
Second line of a record – Lassa entry inh | 2A StopGo | SARS PLP yeast | RE007 growth inh | NS1 function inh | MARV entry inh | Cruzain Triton | Cruzain noTriton
> Fc1ccc(CSc2nncn3c2cc2occc23)c(Cl)c1
  -20.7%[46.1 µM] | -4.0% | x | x | x | x | -4.1% | -5.4%
> Cc1ccc(S(=O)(=O)N(C)C)cc1NC(=O)C(C)OC(=O)c1ccc2c(c1)OCCO2 (stereo not given)
  22.7% | -1.4% | -0.5% | -4.1% | -5.3% | 2.9%[46.1 µM] | x | x
> CC(=O)c1c(C)[nH]c(C(=O)COC(=O)COc2ccccc2)c1C
  0.4% | -10.2% | -1.5% | -6.7% | x | 2.7% | x | x
> Cc1cc(C)c2c(n1)SCC(=O)N2CC(=O)Nc1ccc(C)c(C)c1
  17.5%[46.1 µM] | 6.8%&-2.9% | 10.0% | -5.2% | 20.9% | 8.3%&8.3%[46.1 µM] | -1.9% | 22.3%
> COc1ccc(C(=O)N/N=C/c2ccc(OC)c(CN3CCCc4ccccc43)c2)cc1
  u | -10.9% | -12.1% | 6.1% | u | u | -7.3% | 15.8µM*
> CCOc1ccc(N(CC(=O)Nc2ccc3c(c2)OCO3)S(=O)(=O)c2ccccc2)cc1
  6.3%[46.1 µM] | 58.5%[activator] | x | x | x | x | -6.9% | 4.1%
> O=C(NCCc1ccccc1)C1CCN(S(=O)(=O)N2CCCCC2)CC1
  x | -15.0% | 4.1% | 6.3% | 0.7% | x | x | x
> N#C/C(=C\c1ccc(O)c(O)c1)C(=O)Nc1ccccc1
  -7.1% | u | x | 7.1% | -18.1% | u | -2.3%&-5.0% | 9.5%&0.9%
> CCOc1ccc(CCNC(=O)COC(=O)CSc2ccccc2C)cc1OCC
  -3.9% | -9.6% | -0.4% | -1.5% | -10.5% | 18.1% | x | x
> CC(C)=CCCC(C)CN(C)CCc1ccccn1 (stereo not given)
  -5.8% | 2.4% | -6.4% | -14.6% | -52.0% | -15.2% | 3.1% | 13.7%
> COc1ccc(CCNC(=O)CSc2nnc(CNC(=O)c3c(F)cccc3Cl)o2)cc1OC
  -0.4%[46.1 µM] | -2.1% | 1.2% | -10.0% | 8.3% | u | x | x
> COc1cc(-c2cc(C(=O)Nc3c(Cl)cc(Cl)cc3Cl)c3ccccc3n2)cc(OC)c1OC
  u | u | 12.0% | 11.7% | 15.2% | u | -3.7% | 23.1%
> [O-][n+]1c2ccc3nonc3c2nn1-c1ccccc1Cl
  -13.2% | -12.3% | u | -14.4% | 4.2% | -29.3% | 4.4% | 9.9%
> COc1ccc(CC(=O)N/N=C(\C)c2cccs2)cc1OC
  15.1%[46.1 µM] | -9.7% | 6.5% | -16.2% | 16.3% | 4.6%[46.1 µM] | x | x
> COc1ccccc1NC=C1C(=O)OC2(CCCCC2)OC1=O
  8.7% | 13.2% | 1.2% | -9.6% | -86.8% | 1.2% | -7.7% | -3.6%
> Cc1nn(Cc2c(F)c(F)c(F)c(F)c2F)c(C)c1NC(=O)c1c([N+](=O)[O-])c(C)nn1C
  5.1% | -6.4% | 0.5% | 4.3% | -1.2% | -25.9% | -3.0% | -5.6%
> CC(C)CCCC(C)NS(=O)(=O)Cc1ccccc1 (stereo not given)
  -1.2% | -5.4% | -21.5% | -19.6%[3.69 µM] | -56.3% | -2.6% | -5.3% | -4.3%
> COc1ccccc1C1C(C(N)=O)=C(C)Nc2nc(CCCO)nn21 (stereo not given)
  -0.1%[46.1 µM] | -12.3% | -0.7% | -1.4% | 5.1% | 5.8%[46.1 µM] | x | x
> CCN(C(=O)Cn1c(=O)oc2ccccc21)c1cccc(C)c1
  u | -8.8% | 3.0% | -4.8% | 0.4% | -0.7%[46.1 µM] | x | x
> COc1ccccc1/C=C(/C(=O)NCCCn1ccnc1)c1ccccc1
  x | -21.5% | -0.6% | -25.2% | 1.6% | x | x | x
> CC(C)CCn1c(=O)c2ccccc2n2c(CN3C(=O)NC4(CCC(C)CC4)C3=O)nnc12 (stereo not given)
  u | -21.2% | -3.6% | 21.9% | -1.9% | 2.3%[46.1 µM] | -3.9% | -1.6%
> COCCCNC(=O)c1ccc2c(=O)n(Cc3ccc(OC)cc3)c(=O)[nH]c2c1
  1.4%[46.1 µM] | -6.4%&-22.4% | -1.1% | 1.5% | x | -1.4%&-1.4%[46.1 µM] | 0.0% | 20.8%
> Cc1cc2c(cc1S(=O)(=O)Nc1cccc(Cl)c1C)OCCN2C
  0.9%[46.1 µM] | 35.5%[activator] | x | x | x | x | -2.4% | 4.6%
> CCOC(=O)N1CCN(C(=O)C2CCN(S(=O)(=O)c3cc(Cl)ccc3OCC)CC2)CC1
  -1.6% | u | u | 5.1% | -3.1% | 26.4% | x | x
> CNc1ccccc1C(=O)OC(C)C(=O)Nc1ccc(Cl)cn1 (stereo not given)
  9.9% | -7.4% | -9.3% | -13.9% | -54.7% | 1.5% | x | x
